RanGTP-Imp inh = inhibitors of RanGTP-importin-beta interaction, primary screen, biochemical, FRET, CFP-Ran, YFP-importin-beta, homogeneous. AID 2216, 2009. cell-free CFP-Ran/YFP-importin-beta FRET ratio. actives 1.1% (n = 300,000). Ran GTPase (GTP-bound) - importin-beta complex. inhibition, % (no concentration beside the values);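 active = most replicates above 15%; inconclusive = exactly half above 15%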;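 also: 0% = DMSO wells and 100% = Ran loaded with GDP instead of GTP; wells of about 40 µL received 100 nL stock; the first replicate is given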
HNF4A DNA FP = change in binding of human HNF4A to DNA, primary screen, biochemical, fluorescence polarization, FITC-DNA. AID 1224865, 2016. 1 h. Hepatocyte nuclear factor 4-alpha (Homo sapiens), P41235. activity change, % at 10 µM. actives 0.3% (n = 360,000); in the data active = activity change above about 30%, passing the limit was not always enough;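 also: controls were the assay level and a saturating level of protein; the project sought stronger binding though the title names inhibitors; some compounds called inactive have numbers as strong as hits; positive values seem to mean higher polarization but the record does not say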
Target sequence (P41235 whole entry, looked up): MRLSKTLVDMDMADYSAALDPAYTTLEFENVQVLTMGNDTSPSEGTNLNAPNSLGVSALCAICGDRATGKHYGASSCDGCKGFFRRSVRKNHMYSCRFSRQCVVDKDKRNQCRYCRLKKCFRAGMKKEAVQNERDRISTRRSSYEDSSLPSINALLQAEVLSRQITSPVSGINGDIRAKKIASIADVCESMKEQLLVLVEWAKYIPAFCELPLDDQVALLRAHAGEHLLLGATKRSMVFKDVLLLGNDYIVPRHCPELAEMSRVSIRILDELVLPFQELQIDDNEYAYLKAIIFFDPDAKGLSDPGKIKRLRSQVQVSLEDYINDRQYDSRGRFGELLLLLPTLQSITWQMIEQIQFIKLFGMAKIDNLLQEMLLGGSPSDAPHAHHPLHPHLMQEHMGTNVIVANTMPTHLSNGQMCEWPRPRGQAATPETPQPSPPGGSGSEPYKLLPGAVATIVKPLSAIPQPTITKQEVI
B2AR ag = beta2AR agonists driving receptor internalization, primary screen, cell-based, FAP fluorogen, flow cytometry. response, % (concentration not given with the values). Beta-2 adrenergic receptor (Homo sapiens), P07550. Am2.2-beta2AR cells; reference of the scale not given here. actives 0.43% (n = 340,000). AID 504454, 2011;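 active = response above a set limit, near 3 SD of response in nonfluorescent compounds, cut at about 42% in these data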;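 also: stock transfer was 100 nL into about 11 µL; a reference agonist was the positive control; negative values mostly stem from fluorescent compounds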
Target sequence (P07550 whole entry, looked up): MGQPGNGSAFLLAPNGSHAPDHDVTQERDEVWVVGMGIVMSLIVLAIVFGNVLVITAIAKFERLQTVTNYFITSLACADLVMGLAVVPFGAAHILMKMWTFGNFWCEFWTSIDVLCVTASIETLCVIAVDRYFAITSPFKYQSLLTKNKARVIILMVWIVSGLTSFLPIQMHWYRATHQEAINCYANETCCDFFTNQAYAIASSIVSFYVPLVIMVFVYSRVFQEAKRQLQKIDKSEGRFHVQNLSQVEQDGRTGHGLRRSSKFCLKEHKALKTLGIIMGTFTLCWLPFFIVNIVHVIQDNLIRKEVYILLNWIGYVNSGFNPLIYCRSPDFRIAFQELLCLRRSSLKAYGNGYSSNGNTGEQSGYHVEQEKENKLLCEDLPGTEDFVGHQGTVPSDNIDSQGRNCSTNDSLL
LANA-H2B inh = blockers of LANA interaction with H2A/H2B – biochemical, FP readout, HTS, primary screen; cell-free LANA-H2A/H2B peptide, fluorescence polarization; actives 0.6% (n = 320,000); inhibition, % (concentration not given with the values); in the data active = inhibition mostly above about 10%, no sharp cut-off; inactive = mostly below about 6.7%;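 also: stock transfer was 7.5 nL into about 10 µL; 0% = median of vehicle wells and 100% = median of positive control wells; one replicate is shown; the record names a cut of 25% in any replicate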
ALR H2O2 inh = inhibitors of human ALR sulfhydryl oxidase, primary screen, biochemical, H2O2 detection, HRP-luminol luminescence, single point; actives 3.8% (n = 290,000); purified ALR, DTT oxidation; AID 485317, 2010; inhibition, % (test concentration not listed); FAD-linked sulfhydryl oxidase ALR (Homo sapiens), P55789;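 active = mean and each replicate at 75% or more; inconclusive = only one of the two met; inactive = neither met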;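 also: stock transfer was 7.5 nL into about 7.5 µL; 0% = neutral wells and 100% = wells with inactivated enzyme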
Target sequence (P55789 whole entry, looked up): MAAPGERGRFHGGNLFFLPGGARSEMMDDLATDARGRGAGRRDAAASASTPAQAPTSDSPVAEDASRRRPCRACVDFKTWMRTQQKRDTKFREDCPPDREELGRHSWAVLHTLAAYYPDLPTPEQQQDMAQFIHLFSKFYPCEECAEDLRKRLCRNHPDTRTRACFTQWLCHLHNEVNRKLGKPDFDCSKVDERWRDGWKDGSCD
Vif A3G = inhibitors of Vif binding to APOBEC3G peptide, primary screen, biochemical, TR-FRET, GST-Vif 1-94, biotin-A3G peptide, dose response retest (AID 1117319); Virion infectivity factor (Human immunodeficiency virus type 1 group M subtype B (isolate …; TR-FRET GST-Vif / biotin-A3G peptide binding; higher % means a stronger effect; test concentration not given here; strong numbers were not always called active; inhibition, %, or IC50 in µM where a hit was titrated; actives 0.57% (n = 260,000);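 active = above the screen mean plus three standard deviations and confirmed in dose response; inconclusive = results disagree or hit not tested in dose response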;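 also: Vif residues 1-94 fused to GST binding biotinylated APOBEC3G peptide 110-148; 0% = full assay without inhibitor and 100% = GST in place of GST-Vif; retest series ran down from 100 µM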
Calb FLC = C. albicans growth inhibition with fluconazole, primary screen, CaCi-2 strain, Alamar Blue fluorescence; actives 0.57% (n = 300,000); growth inhibition, % (test concentration not listed); C. albicans CaCi-2 (fluconazole-resistant clinical isolate) + fluconazole, 48 h; AID 1979, 2009;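 active = most replicates above 75%; inconclusive = exactly half above 75%; inactive = most below 75%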;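 also: all wells also contain fluconazole at 8 µg/ml as a sub-toxic cotreatment; 0% = median of DMSO wells and 100% = median of geldanamycin control wells; wells of about 8 µL received 7.5 nL stock; the first replicate is given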
Starred values were filed as active, the others as inactive; ? = inconclusive; . = not tested or not shown.

[1] CC(Oc1ccc(F)cc1Br)c1nc2ccccc2c(=O)[nH]1 (stereo not given)
[2] COc1ccc(C(=O)/C=C/Nc2ccccn2)c(OC)c1
[3] Cn1nc(-c2ccccc2)c(C(O)c2ccccc2C(F)(F)F)c1Cl (stereo not given)
[4] COCCCNCCOCCOc1c(OC)cccc1OC
[5] COc1cc2[nH]c(=O)c(C(=O)NCc3ccc(F)cc3)c(O)c2cc1OC
[6] CC(=O)c1cc2c(cc1NC(=O)CCCC(=O)O)OCO2
[7] CCN(Cc1ccccc1)C(c1cccc(C#N)c1)c1nnnn1C(C)(C)C (stereo not given)
[8] O=C(CCN1C(=O)COc2ccccc21)N1CCN(c2ccccc2)CC1

assay / entry,1,2,3,4,5,6,7,8
RanGTP-Imp inh,-4.4,8.1,2.6,4.4,-4.4,-0.5,-0.9,-0.3
HNF4A DNA FP,1.3,4.5,-4.5,1.2,-1.8,-4.2,0.8,-3.1
B2AR ag,1,-20,7,1,0,-1,6,2
LANA-H2B inh,-5.6,-0.5,-0.8,-1.0,4.7,-8.8,1.7,-3.5
ALR H2O2 inh,-12,-10,-2,-3,10,-3,-8,72
Vif A3G,.,-8%,-7%,-3%,.,-2%,3%,2%
Calb FLC,-3,-5,0,-9,6,-11,5,-7

[9] C=C1C2C[C@H](O)C(C)(C)[C@@]2(O)[C@H](O)C[C@]23C[C@@](C)(O)[C@H](CC[C@H]12)[C@H]3O (stereo not given in full)
[10] COc1ccc2ccc3c(c2c1)N=C[C@]1(O3)N(C)c2ccccc2C1(C)C
[11] COc1cccc(CN2CCC(N(CCc3ccccc3)Cc3ccccc3)CC2)c1OC
[12] COc1cc2c(cc1OC)/C(=C/C(=O)c1ccccc1)NCC2
[13] CCOP(=O)(c1ccc(N(C)C)cc1)C(O)c1ccc(OC)cc1 (stereo not given)
[14] COc1ccccc1-c1cc(C(F)(F)F)nc(NCc2ccco2)n1
[15] COc1ccccc1NC(=O)CSc1nc2c(sc3ccccc32)c(=O)n1CCN(C)C
[16] Cc1ccc(/C(N)=N/OC(=O)c2cccc(Cn3cc(C(F)(F)F)ccc3=O)c2)cc1

assay / entry,9,10,11,12,13,14,15,16
RanGTP-Imp inh,9.3,1.2,0.1,8.0,6.7,4.2,-4.6,6.3
HNF4A DNA FP,-3.1,-0.4,0.3,4.5,7.2,0.5,-2.2,0.9
B2AR ag,2,6,9,6,-3,2,-3,5
LANA-H2B inh,0.4,-0.4,3.2,-3.6,-1.8,-0.4,5.5,-1.2
ALR H2O2 inh,-3,-45,-3,-6,-4,0,99*,3
Vif A3G,.,15%,.,-8%,0%,6%,-14%,.
Calb FLC,-5,2,-19,-11,-2,-20,2,-1

[17] COc1cc(NC(=S)N2CCN(C(=O)c3ccco3)CC2)c(OC)cc1Cl
[18] CSC1=C(C#N)C(C)CC(=O)N1 (stereo not given)
[19] Clc1ccc2[nH]c3c(NCC4CCCO4)ncnc3c2c1 (stereo not given)
[20] Cc1cc(C(=O)OCC(=O)Nc2sc3c(c2C#N)CCC(C)C3)c2ccccc2n1 (stereo not given)
[21] O=C(CCC(=O)c1cccs1)c1cccs1
[22] COc1ccc(S(=O)(=O)N2CCN(Cc3ccc4c(c3)OCO4)CC2)c2ccccc12
[23] O=C(c1ccc(F)cc1)N1CCN(c2ccc([N+](=O)[O-])c(N3CCOCC3)c2)CC1
[24] COc1cccc(C(C(=O)NCC2CCCO2)N(C(=O)Cn2nnc3ccccc32)c2ccccc2C(C)=O)c1OC (stereo not given)

assay / entry,17,18,19,20,21,22,23,24
RanGTP-Imp inh,0.9,0.7,-3.0,-0.7,-2.7,-6.1,-5.9,1.0
HNF4A DNA FP,-1.9,0.7,.,2.1,3.7,0.7,-1.2,5.4
B2AR ag,-6,3,.,17,-6,1,-3,10
LANA-H2B inh,-0.7,1.9,5.3,0.3,-1.9,-0.5,-1.2,-2.9
ALR H2O2 inh,-23,-1,-9,.,-11,-10,.,-2
Vif A3G,12%,-4%,-7%,.,2%,25%,5%,.
Calb FLC,-5,0,27,37,-10,-14,4,34

The last two entries of the part before are carried over, then new ones follow.
[23] O=C(c1ccc(F)cc1)N1CCN(c2ccc([N+](=O)[O-])c(N3CCOCC3)c2)CC1
[24] COc1cccc(C(C(=O)NCC2CCCO2)N(C(=O)Cn2nnc3ccccc32)c2ccccc2C(C)=O)c1OC (stereo not given)
[25] Cc1cc2c3c(c1)C(C)CC(C)(C)N3C(=O)C2=O (stereo not given)
[26] COc1ccc(C(CC(=O)O)NS(=O)(=O)c2ccc(C)cc2)cc1OC (stereo not given)
[27] O=C(O)c1ccc(S(=O)(=O)Cc2ccccc2)cc1
[28] CC(C)(CNC(=O)C1c2ccccc2-c2ccccc21)N1CCOCC1
[29] COc1ccc(F)cc1C(=O)C1CCCN(Cc2ccc(Oc3ncccn3)cc2)C1 (stereo not given)
[30] COc1ccc(NC(=O)CN2CCOCC2)cc1S(=O)(=O)N1CCCCC1
[31] COc1ccc(NC(=O)C#Cc2ccccc2)cc1
[32] COc1ccc(N2CCN(C(=O)c3ccc(NS(=O)(=O)c4ccccc4)cc3)CC2)cc1

assay / entry,23,24,25,26,27,28,29,30,31,32
RanGTP-Imp inh,-5.9,1.0,1.5,-0.2,-0.4,-0.5,0.8,.,-5.1,-1.8
HNF4A DNA FP,-1.2,5.4,2.9,-1.2,1.2,-1.8,-0.7,-1.9,-1.3,0.2
B2AR ag,-3,10,13,2,3,-13,0,-7,-6,8
LANA-H2B inh,-1.2,-2.9,4.1,-1.6,7.5,-1.6,5.5,.,2.7,3.1
ALR H2O2 inh,.,-2,41,1,-12,1,-5,1,6,-5
Vif A3G,5%,.,15%,-2%,-6%,.,0%,-2%,.,?
Calb FLC,4,34,-21,7,4,4,-7,.,3,-2

[33] CCOC(=O)CN1C(=O)C(CC)Oc2ccccc21 (stereo not given)
[34] CN(CC(=O)Nc1ccc(Cl)cc1)Cc1cc(=O)n2ccsc2n1
[35] COc1ccc(N(CC(=O)Nc2cc(C)cc(C)c2)S(=O)(=O)c2ccccc2[N+](=O)[O-])c(OC)c1
[36] C=CCN1/C(=C2/SC(=S)N(C)C2=O)Sc2ccccc21
[37] COc1ccc(S(=O)(=O)N2CCN(CC(=O)NCC3(N4CCOCC4)CCCCC3)CC2)cc1
[38] O=C(COc1ccc(S(=O)(=O)NCCc2ccccc2)cc1)N1CCCC1
[39] CC(C)Cc1ccc(S(=O)(=O)NCC2CCCO2)cc1 (stereo not given)
[40] COC(=O)c1cc2nc(-c3ccccc3)cc(C)n2n1

assay / entry,33,34,35,36,37,38,39,40
RanGTP-Imp inh,4.5,3.6,1.2,-1.6,.,1.1,-0.3,-2.5
HNF4A DNA FP,11,-3.1,4.8,.,1.4,1.9,1.4,2.6
B2AR ag,1,-7,0,.,-1,-2,11,5
LANA-H2B inh,-3.4,-7.0,3.6,-2.2,2.4,3.3,3.8,0.0
ALR H2O2 inh,-5,-5,-1,-16,-1,-2,-1,19
Vif A3G,-2%,.,.,11%,1%,4%,.,1%
Calb FLC,38,5,-10,2,.,-2,11,-11

[41] COc1ccc(CC(=O)Nc2cccc(/C(C)=N/NC(=O)C3(C)CC3(Br)Br)c2)cc1 (stereo not given)
[42] CC1CCCN(C2=C(Cl)C(=O)N(c3cccc(Cl)c3)C2=O)C1 (stereo not given)
[43] CCN1CCN(c2oc(/C=C/c3ccccc3)nc2C#N)CC1
[44] O=C(C[C@H]1C/C=C\CC[C@H](Cc2ccc(F)cc2)C(=O)OC[C@@H](Cc2c[nH]c3ccccc23)NC1=O)NCCO
[45] CCOC(=O)N1CCN(CCC(=O)Nc2cccc(Cl)c2C)CC1
[46] Cc1ccc(C(=O)NC(C)CCc2ccccc2)cc1[N+](=O)[O-] (stereo not given)
[47] O=c1c2ccccc2nnn1CSc1nnc2ccccn12
[48] COC(=O)[C@@]12CCCCN1[C@H](c1ccc(-c3ccc(F)cc3)c(OC)c1)[C@H]1C(=O)N(C)C(=O)[C@H]12

assay / entry,41,42,43,44,45,46,47,48
RanGTP-Imp inh,-0.3,-3.0,3.9,.,0.3,0.5,-2.3,.
HNF4A DNA FP,0.7,-1.0,-3.3,0.3,0.1,-1.4,-3.9,-1.1
B2AR ag,11,-10,4,0,2,-6,4,38
LANA-H2B inh,2.6,-0.9,2.0,2.2,0.1,4.0,-2.1,4.3
ALR H2O2 inh,6,-1,-10,-12,.,-8,.,-6
Vif A3G,-6%,3%,-6%,.,-3%,3%,-8%,.
Calb FLC,0,0,-5,.,-2,-9,25,.

[49] O=S(=O)(c1ccc2c(c1)N(Cc1ccc(Cl)cc1)C1CCCN21)N1CCOCC1 (stereo not given)
[50] Cc1nn(CC(=O)Nc2nnc(CC(=O)N3CCCC3)s2)c(=O)c2ccccc12
[51] CCOC(=O)Nc1ccc2c3c(cccc13)-c1ccccc1-2
[52] CCC(CO)Oc1cc(NCc2ccccc2)c2ncn(C(C)C)c2c1 (stereo not given)
[53] O=[N+]([O-])c1ccc(-n2nnnc2CN2CCOCC2)cc1
[54] CCc1ccccc1N1CC(C(=O)Nc2cc(S(=O)(=O)N3CCCC3)ccc2Cl)CC1=O (stereo not given)
[55] Nc1ccc(Nc2ccccc2)cc1
[56] COC(=O)/C=C1\SC(=Nc2ccc(OC)cc2)NC1=O

assay / entry,49,50,51,52,53,54,55,56
RanGTP-Imp inh,-4.1,2.0,.,.,-0.5,.,-6.4,2.1
HNF4A DNA FP,3.9,-1.3,-1.8,1.4,2.4,-1.7,2.2,1.7
B2AR ag,-3,2,21,-3,1,19,1,6
LANA-H2B inh,-2.8,10,.,7.1,-4.9,-4.8,-1.7,-1.2
ALR H2O2 inh,6,1,.,59,-16,.,-2,3
Vif A3G,33%,.,-1%,.,1%,.,12%,-1%
Calb FLC,23,-6,.,.,4,.,-27,-6

Continued; it opens with the 2 that closed the last part.
[55] Nc1ccc(Nc2ccccc2)cc1
[56] COC(=O)/C=C1\SC(=Nc2ccc(OC)cc2)NC1=O
[57] O=C(Nc1ccccc1)C(Cc1ccccc1)NC(=O)C12CC3CC(CC(C3)C1)C2 (stereo not given)
[58] CC(OC(=O)c1cc2sccc2n1C)C(=O)NC(C)(C)C (stereo not given)
[59] CCOc1ccc(NS(=O)(=O)c2cccc(C(=O)N(C)Cc3ccco3)c2)cc1
[60] COc1cc(CCC(=O)OCC(=O)Nc2ccccc2C(C)C)cc(OC)c1OC
[61] Cc1occc1-c1nnc(SCC(=O)NC2CC2)n1C(C)C
[62] C/C(N)=C(/C#N)C(=O)CN1CCCCC1
[63] Cc1c(C(=O)NCc2ccc3c(c2)OCO3)sc2nc(-c3ccccc3)cn12

assay / entry,55,56,57,58,59,60,61,62,63
RanGTP-Imp inh,-6.4,2.1,3.6,1.5,.,1.1,.,2.0,-1.9
HNF4A DNA FP,2.2,1.7,1.6,-1.7,5.2,0.4,-1.5,2.3,-2.0
B2AR ag,1,6,-3,5,-5,1,8,5,1
LANA-H2B inh,-1.7,-1.2,3.2,5.7,0.8,7.8,2.9,3.4,-0.8
ALR H2O2 inh,-2,3,-2,-5,-4,-7,-3,-5,-5
Vif A3G,12%,-1%,21%,0%,.,?,.,8%,-3%
Calb FLC,-27,-6,2,-27,.,1,.,-23,-1

From PubChem BioAssay
